# Mtb betalactam = beta-lactam sensitization of Mtb H37Rv | M. tuberculosis H37Rv growth with meropenem, percent inhibition; hits of this screen are not shown here | inhibition, % at 25 µM | 0.27% of 330,000 active | AID 434955;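 active means about 74% or more and at least 40 points above the plate without the antibiotic, then above 30% in a dose series; inconclusive means first-round hits that could not be retested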;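 further: growth measured after seven days incubation then overnight dye step; 0% = bacteria only wells and 100% = bacteria with antibiotic; twin plates without the antibiotic show which effects depend on it; some results filed as inactive read as strong as hits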
# * marks the source's active call; other numbers are inactive results; ? = inconclusive. This is a subset; the hit share may differ from the screen's.
SMILES,Mtb betalactam
Cc1cccc(-n2ncc3c2CCCC3NC(=O)C2(C(N)=O)CC2)c1C (stereo not drawn),-6.2
CC1CCCCN1C(=O)COC(=O)c1ccc2c(c1)C(=O)N(Cc1ccco1)C2=O (stereo not drawn),-7.8
COc1cccc(CNC(=O)COC(=O)CNC(=O)c2ccc(-c3ccccc3)cc2)c1,-3.2
Cc1cc(C)n2nc(SC(C)C(=O)N3CC(C)OC(C)C3)nc2n1 (stereo not drawn),-7.4
COc1cccc(OC)c1C(=O)OCC(=O)N1CC(C)CC(C)C1 (stereo not drawn),-1.2
CC(C)CN(C(=O)CCNC(=O)c1ccc(Cl)cc1)c1c(N)n(CC(C)C)c(=O)[nH]c1=O,-8.0
COCCn1c(C)cc(C(=O)COC(=O)c2ccc(S(=O)(=O)N(C)C)cc2)c1C,-6.4
CC(=O)Nc1ccc(S(=O)(=O)Nc2cc3c(cc2C(C)=O)OCO3)cc1,2.9
O=C(COC(=O)c1ccc(N2CCCC2=O)cc1)Nc1ccccc1,-15.4
CCOC(=O)C1=C(C)NC(C)=C(C(=O)OCC)C1C(=O)OCC(=O)NCc1ccc(F)cc1,-1.6
CCN(CC)S(=O)(=O)c1ccc(=O)n(CC(=O)N2CCCc3cc(C)ccc32)c1,-2.1
C=CC[C@@H](CC(=O)N[C@H](CO)Cc1ccccc1)C(=O)N[C@H](COC(=O)[C@@H](CC=C)Cc1ccc(F)cc1)C(C)(C)C,-7.9
CCC(C)(C)C1CCc2[nH]nc(C(=O)NCCN3CCOCC3)c2C1 (stereo not drawn),-12.3
COc1cccc(-c2c(-c3cc(OC)cc(OC)c3)n(C)c3ccc(-c4ccc(OC)nc4)cc23)c1,-4.6
CC(OC(=O)CNC(=O)c1sc2ccccc2c1Cl)c1ccccc1 (stereo not drawn),84.2

# Structural class: the compounds so far containing an NH in an aromatic ring
SMILES,Mtb betalactam
CC(C)CN(C(=O)CCNC(=O)c1ccc(Cl)cc1)c1c(N)n(CC(C)C)c(=O)[nH]c1=O,-8.0
CCC(C)(C)C1CCc2[nH]nc(C(=O)NCCN3CCOCC3)c2C1 (stereo not drawn),-12.3

# (listing goes on)
SMILES,Mtb betalactam
CC(NC(=O)c1ccc(S(=O)(=O)NCc2ccco2)cc1)c1ccc(F)cc1 (stereo not drawn),3.2
COc1ccc(C(O)Cc2nccn2C)cc1 (stereo not drawn),-5.6
O=C1NC(=O)C(c2ccccc2)(c2ccc(O)cc2)N1 (stereo not drawn),-6.4
CCN(CC)C(=O)c1ccc(NC(=O)c2ccc(N3CCCC3=O)cc2)cc1,9.2
O=C(N/C(=C\c1ccc2c(c1)OCO2)C(=O)N1CCOCC1)c1ccccc1Br,-2.5
Cc1ccc2c(c1)C(=O)N1[C@H]3c4cc(C)ccc4OC[C@@H]3[C@H](c3ccccc3)[C@]1(C)C(=O)N2,56.2
Cn1ccc2cc(-c3csc(N4CCC(C(N)=O)CC4)n3)ccc21,-5.2
CC(=O)C[C@H](O)CC(=O)[C@H]1OC(=O)CCCCCCCc2ccccc21,-6.5
Cc1ccc(NS(=O)(=O)c2ccc(C(=O)NCCN3CCOCC3)cc2)cc1,-0.1
CC(C)(C)NC(=O)CC1C[C@H](C(=O)N2CCCCC2)[C@@]2(C)c3[nH]c4ccccc4c3CCN2C1=O (stereo partly drawn),-4.0
Clc1cccc(-c2ccc(-c3nc4ccccn4c3NCc3ccccc3)cc2)c1,91.1
CCOC(=O)[C@H]1[C@H]2COc3ccccc3[C@@H]2N2C(=O)c3cc(Cl)ccc3NC(=O)[C@@]12C,21.9
Cc1c(Br)cnn1C(C)C(=O)N1CCN(c2ccccc2F)CC1 (stereo not drawn),2.2
O=S(=O)(c1ccc(F)c(F)c1F)N1CCN(c2ncnc3sccc23)CC1,-11.8
O=C(CNC(=O)c1ccco1)NNC(=O)c1ccc(Br)cc1,0.1
CCN(CC)S(=O)(=O)c1ccc(OC)c(NC(=O)CCc2c(C)noc2C)c1,-1.1
CCC1(C)NC(=O)N(CC(=O)NCC(=O)Nc2c(C)cc(C)cc2C)C1=O (stereo not drawn),-1.8
N=C(N)SCCN,1.5
COc1ccc(SC[C@H](C)CN2CC[C@H](C(C)(C)C)CCC2=O)cc1,23.7
CC(=O)Nc1nc2cc(C(N)=O)ccc2s1,1.0
CC(C)[C@]1(c2ccc(Cl)cc2)ON(c2ccccc2C(F)(F)F)C1=O,1.1
COC(=O)C1=C(c2ccc(OC)c(OC)c2)C[C@@H]2CC[C@H]1N2C(=O)NCc1ccc(F)cc1,-0.5
C=CCC[C@H](Cc1ccc(F)cc1)C(=O)OC[C@H](Cc1c[nH]c2ccccc12)NC(=O)[C@H](CC=C)CC(=O)N[C@H](CO)Cc1ccccc1,-2.5
COc1ccc(OC)c(C(c2c(O)nc(SC)[nH]c2=O)c2c(O)nc(SC)[nH]c2=O)c1,5.4
CC1(C)Cc2c(cnn2-c2ccc(F)cc2)C(NC(=O)CCCN2CCCCC2=O)C1 (stereo not drawn),-8.8
Cc1nnc(SCC(=O)Nc2ccc(OC(F)F)c(Cl)c2)n(N)c1=O,-6.6
CCn1nc(C(=O)NNC(=O)c2ccc(OC(F)F)cc2)c2ccccc2c1=O,2.4
CCOC(=O)[C@H]1[C@H]2COc3ccc(C)cc3[C@@H]2N2C(=O)c3cc(Cl)ccc3NC(=O)[C@@]12C,-3.0
CCOCCn1[nH]c2ccccc2c1=O,0.7
COc1ccc(C(=O)N2CCN(C)C(C)C2)cc1OC1CCN(C(C)=O)CC1 (stereo not drawn),?
Cc1cc(C)cc(N(CC(=O)NCc2ccccc2)C(=O)CCC(=O)Nc2ccccn2)c1,-0.4
COc1ccc(NC(=O)CN2CCOCC2)cc1S(=O)(=O)N1CCCCC1,-12.5
Cc1ccc(S(=O)(=O)N2CCOCC2)cc1C(=O)N1CCN(c2ccc(C(F)(F)F)cn2)CC1,-3.7
O=C(NNC(=O)c1cc(S(=O)(=O)N2CCOCC2)c(Cl)cc1Cl)c1ccccc1F,-1.6
C#CCOCCOCCOCCNc1nc(N2CCN(C(=O)CCCCCCCCCCNC(=O)[C@H]([C@@H](C)CC)n3cc(CCCCN=C(N)N)nn3)CC2)nc(N2CCN(C(=O)CCCCCCCCCCNC(=O)[C@H](CCCCN)n3cc(C)nn3)CC2)n1,99.8
Cc1cc(C)c(NC(=O)CN(C)C(C)C(=O)N2CCc3ccccc32)c(C)c1 (stereo not drawn),2.0
COc1ccc2[nH]cc(CCNC(=O)c3ccco3)c2c1,-5.4
CCN(C[C@H]1N[C@@](C)(C(=O)OC)[C@H]2C(=O)N(Cc3ccccc3)C(=O)[C@@H]12)C(=O)Nc1ccc(F)cc1,-8.7
CN(C(=O)c1ccc(NC(=O)Cc2cccc(NC(=O)C3CCCN(C(=O)C4CCC4)C3)c2)cc1)C1CCCC1 (stereo not drawn),-1.3
COc1ccc(NC(=O)CSc2nc3nc(C)cc(C)c3c(=O)[nH]2)cc1OC,0.0
CCc1nnc(NC(=O)Cc2ccc(S(=O)(=O)N3CCCCC3)cc2)s1,4.6
COc1cc(NC(=O)Cn2cnc3c(OCc4ccccc4)ncnc32)cc(OC)c1OC,1.7
O=C(C(=O)N1CCN(Cc2ccccc2)CC1)c1c[nH]c2ccccc12,-1.4
CC(=O)Nc1ccc(S(=O)(=O)N[C@@H](C)C(=O)N2CCN(C/C=C/c3ccccc3)CC2)cc1,-11.3
CCOc1ccccc1NC(=O)C1CCN(S(C)(=O)=O)CC1,-8.8
O=C(Nc1cccc(Cl)c1)c1cncn1-c1ccc(F)cc1,-2.4
O=C(O)c1cc(S(=O)(=O)Nc2cccc(Oc3ccccc3)c2)ccc1Br,3.8
O=C(Nc1cc2c(cc1Br)OCCO2)c1cccnc1,-2.0
Fc1ccccc1-c1csc(-c2cccnc2)n1,2.4
CCC(C)(C)C1CCC2(CC1)NC(=O)N(CC(=O)NCCCc1ccccc1)C2=O (stereo not drawn),-2.2
O=C(CCN=C1NS(=O)(=O)c2ccccc21)Nc1ccc(F)cc1Cl,2.8
CCCCn1c(N)c(N(CCC(C)C)C(=O)c2ccc(C)o2)c(=O)[nH]c1=O,-3.4
CSCc1ccc(C(=O)OCc2nc3ccccc3s2)o1,62.1
Cc1ccc(C(=O)CCC(=O)OCC(=O)NNC(=O)c2ccccc2Cl)cc1,-1.7
CNC(=O)Cn1nc(-c2ccc(C)cc2)c2ccccc2c1=O,5.5
Nc1cc(=O)[nH]c(SCC(=O)NCCC2=CCCCC2)n1,-6.9
CCn1c(=S)[nH]c2cc(S(=O)(=O)N3CCOCC3)ccc21,-1.0
Cc1ccc(C)c(NC(=O)CN(C)C(=O)c2cc(C3CC3)nn2-c2ccccc2)c1,1.0
CC(=O)c1cccc(S(=O)(=O)N2CCC(C(=O)Nc3cccc(C(=O)NC4CC4)c3)CC2)c1,-3.5
COc1ccc(NC(=O)C2=CN3CCS(=O)(=O)N=C3C=C2)c(OC)c1,-5.0

# Next section.
SMILES,Mtb betalactam
CC1CCC(NC(=O)C(C)N2C(=O)C3CCCCC3C2=O)CC1 (stereo not drawn),-0.7
CS(=O)(=O)c1cccc(NC(=O)CSc2nnc3n2CCCCC3)c1,-9.5
CC1CN(CCOc2cccc(Oc3ccccc3)c2)CC(C)O1 (stereo not drawn),-2.7
CCOc1ccc(NC(=O)c2ccc(NC(=O)c3ccc(NC(N)=O)cc3)cc2)cc1,4.4
O=C(CN1C(=O)C2CC=CCC2C1=O)Nc1nnc(C2CC2)s1 (stereo not drawn),-5.8
CC(=O)c1c(C)oc2c1cc(NS(=O)(=O)c1ccc(C(=O)O)cc1)c1ccccc12,0.9
Cc1ccc(CN(C(=O)c2csnn2)C(C(=O)NC2CCCC2)c2cccnc2)cc1 (stereo not drawn),-2.5
CCOc1ccccc1C(=O)NCC(=O)OCc1csc(CC(=O)Nc2ccc(C)cc2)n1,-7.5
CS(=O)(=O)N(CC(=O)N1CCc2ccccc2C1)c1cccc(F)c1,-13.2
CC(C)[C@H](NC(=O)OCc1ccccc1)C(=O)OCC(=O)c1ccccc1,-0.8
N#Cc1ccc(OCC(=O)N2CCCC2=O)cc1,-0.4
CC(=O)Nc1ccc(/C(C)=N/NC(=O)c2ccc(COc3ccccc3Cl)o2)cc1,4.2
CCCCNC(=O)CSc1nnc(-c2cccc(S(=O)(=O)N3CCOCC3)c2)o1,17.6
CCCCN(C(=O)c1ccc2c(c1)NC(=O)CS2)c1ccccc1,-6.8
CN(CCO)c1ccc(C=NNc2ccc([N+](=O)[O-])cc2S(=O)(=O)Nc2ccccc2C(=O)O)cc1,2.5

# Five records picked at random from those above, as already listed:
SMILES,Mtb betalactam
Clc1cccc(-c2ccc(-c3nc4ccccn4c3NCc3ccccc3)cc2)c1,91.1
O=C(O)c1cc(S(=O)(=O)Nc2cccc(Oc3ccccc3)c2)ccc1Br,3.8
CC(C)[C@H](NC(=O)OCc1ccccc1)C(=O)OCC(=O)c1ccccc1,-0.8
CCC1(C)NC(=O)N(CC(=O)NCC(=O)Nc2c(C)cc(C)cc2C)C1=O (stereo not drawn),-1.8
Cc1cc(C)c(NC(=O)CN(C)C(C)C(=O)N2CCc3ccccc32)c(C)c1 (stereo not drawn),2.0

# (list continues)
SMILES,Mtb betalactam
NS(=O)(=O)c1cccc(NC(=O)CN2CCN(S(=O)(=O)c3ccc4c(c3)OCCO4)CC2)c1,-3.4
COc1ccc(C(=O)O)cc1S(=O)(=O)N1CCN(Cc2ccc3c(c2)OCO3)CC1,-1.2
c1ccc(OCCN2CCOCC2)cc1,-3.6
CC(=O)O[C@@H]1CC[C@]2(C)C3CC[C@@]4(C)C(C[C@@H](O)[C@@H]4O)C3[C@@H](OC(C)=O)C[C@H]2C1 (stereo partly drawn),-6.5
COc1ccc(S(=O)(=O)N2CCCCC2)cc1NC(=O)[C@@H]1CCCN1C(=O)c1cccs1,-4.4
CC(=O)Nc1cccc(NC(=O)COc2ccc3c(c2)CCC3)c1,-1.3
Cn1c(SCC(=O)Nc2ccc(N3CCOCC3)cc2)nnc1C1CC1,-2.0
CN(CC(=O)Nc1ccccc1C(F)(F)F)C(=O)CSc1nnc(-c2ccncc2)n1C,-4.3
CC(=O)c1cccc(S(=O)(=O)N2CCN(CCOc3ccccc3)CC2)c1,0.8
COc1ccc(CNC(=O)COc2cc(O)c3c(c2)OC(C)(C)CC3=O)c(OC)c1,-1.1
CSCCC(NC(=O)c1ccc(C(C)(C)C)cc1)C(=O)OCC(=O)N1CCCC1=O (stereo not drawn),1.1
Cc1cc(NC(=O)c2cccc(S(=O)(=O)Nc3cccc(C(=O)O)c3)c2)no1,?
CC(=O)Nc1ccc(S(=O)(=O)NCC(=O)NNC(=O)COc2c(C)cccc2C)cc1,2.3
CC(=O)Nc1nc(-c2ccccc2)cc(-c2ccco2)c1C#N,-0.5
COc1cc2cnc(-c3ccccc3)c(-c3ccc(C(F)(F)F)cc3)c2cc1OC,91.8

# Molecules listed so far that contain a cyano group (2):
SMILES,Mtb betalactam
N#Cc1ccc(OCC(=O)N2CCCC2=O)cc1,-0.4
CC(=O)Nc1nc(-c2ccccc2)cc(-c2ccco2)c1C#N,-0.5

# Going on with the list:
SMILES,Mtb betalactam
C[C@@]12C(=O)N(c3ccc(Cl)cc3)C(=O)N1[C@@H]1c3ccccc3OC[C@@H]1[C@H]2c1ccccc1,-3.5
CCCCN(C(=O)CC1CCCC1)c1c(N)n(CCCC)c(=O)[nH]c1=O,-5.5
COc1ccc(C(=O)c2c3ccc(OC)cc3[n+]([O-])n2Cc2ccc(C(N)=O)cc2)cc1,17.7
O=C(CNC(=O)C1CCCCC1)OCC(=O)c1ccc(F)cc1,-9.5
CCOC(=O)C1=CC[C@H]2c3c(c4ccccc4n3C)C[C@H]1N2C,-3.5
Cc1ccc2c(c1)-n1c(nc3cc(Cl)ccc3c1=O)C(Cc1ccccc1)NC2=O (stereo not drawn),5.5
OCC[C@H]1C[C@H](O)[C@@H](O)[C@@]2(OCCCc3ccccc32)O1,-6.5
COc1ccc(OC[C@@H](O)CNC(=O)c2cccc3c2C(=O)c2ccc(Cl)cc2S3(=O)=O)cc1,14.3
Cc1ccc2c(c1)[C@H]1[C@H](CO2)[C@H](c2ccccc2)[C@]2(C)C(=O)N(Cc3ccc(F)cc3)CC(=O)N12,5.8

# High-throughput results as filed in PubChem.
